# 2A StopGo: High Throughput Screening for Foot and Mouth Disease Virus Antivirals; human cells with a luciferase reporter of 2A StopGo recoding; control for the full effect not named in the record; Potency, µM (doses to about 57.9 µM), inactives show top-dose signal change, negative = less light; actives 1.2% (n = 410,000); AID 1159524, 2015; active = well fitted falling curve with a large enough effect; inconclusive = small, poorly fitted or top-dose-only effect; inactive = no such curve, though single readings can be large or run the other way; tested in HEK293T cells; further: on the % scale 0 is the no-effect control and ±100 the full control effect; nearly all actives have a fitted effect of over 45% in size; luciferase light after 4 h
# RE007 growth inh: qHTS Assay for Inhibitors of the HIV-1 protein Vpr. Potency, µM (titrated, usually from 92.2 µM), inactives show at the top dose activity change, negative = less growth. actives 0.21% (n = 360,000). AID 651644, 2012. S. pombe RE007 Vpr strain, BacTiter-Glo ATP luminescence, 24 h; control for the full effect not named in the record; active = well fitted falling curve with a large enough effect; inconclusive = small, poorly fitted or top-dose-only effect; inactive = no such curve, though single readings can be large or run the other way;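 further: on the % scale 0 is the no-effect control and ±100 the full control effect; nearly all actives have a fitted effect of over 50% in size; the assay follows cell death caused by Vpr and the record does not say whether a fall means rescue or toxicity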
#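 Fission yeast RE007 carrying one integrated HIV-1 vpr copy, seeded at OD 0.01 in PMG+AL medium with 23 nL pinned compound. Grown 24 h at 30 degrees; viability read by BacTiter-Glo luminescence after 5 min.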
# NS1 inh: qHTS Assay for Inhibitors of Influenza NS1 Protein Function; S. cerevisiae slowed by influenza A NS1, growth recovery by OD600; Potency, µM (titrated, usually from 46.1 µM), for the others: at the top dose activity, positive = more growth; actives 0.4% (n = 270,000); active means well fitted rising curve with a large enough effect; inconclusive means small, poorly fitted or top-dose-only effect; inactive means no such curve, though single readings can be large or run the other way; further: nearly all actives have a fitted effect of over 50% in size
#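 S. cerevisiae expressing influenza A NS1, grown in glucose, washed, then diluted 1:100 into pH 6.0 -URA galactose medium with 23 nl compound. Growth recovery read as OD600; NS1-free strain serves as control.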
# MARV entry inh: qHTS for inhibitors of binding or entry into cells for Marburg Virus; Marburg virus pseudotyped entry inhibition, cell reporter; control for the full effect not named in the record; about a third of the inactives were read at about 46 µM; Potency, µM (titrated, usually from 37.8 µM), without a hit: at the highest dose activity change, negative = inhibition, actives largely listed as inhibitors; actives 1.8% (n = 300,000); AID 540276, 2011; active = well fitted inhibition curve with a large enough effect; inconclusive = small, poorly fitted or top-dose-only effect, or effect the other way; inactive = flat fitted curve, though single readings scatter; tested in HEK293 cells; about a fifth of its hits are not listed in these tables; further: on the % scale 0 is the no-effect control and ±100 the full control effect; luciferase read-out
# Cruzain noTriton: qHTS Assay for Promiscuous and Specific Inhibitors of Cruzain (without detergent); Cruzipain (Trypanosoma cruzi), P25779; Potency, µM, for inactives: max response, negative = inhibition, actives largely listed as inhibitors; actives 2.3% (n = 200,000); AID 1476, 2009; purified cruzain, Z-FR-AMC fluorescence, no detergent;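 further: plate controls were enzyme without inhibitor for no effect and buffer without enzyme for full effect; nearly all actives have a fitted effect of over 40% in size; top concentration of the series not given in the record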
# Target sequence (P25779 123-467 limits assumed): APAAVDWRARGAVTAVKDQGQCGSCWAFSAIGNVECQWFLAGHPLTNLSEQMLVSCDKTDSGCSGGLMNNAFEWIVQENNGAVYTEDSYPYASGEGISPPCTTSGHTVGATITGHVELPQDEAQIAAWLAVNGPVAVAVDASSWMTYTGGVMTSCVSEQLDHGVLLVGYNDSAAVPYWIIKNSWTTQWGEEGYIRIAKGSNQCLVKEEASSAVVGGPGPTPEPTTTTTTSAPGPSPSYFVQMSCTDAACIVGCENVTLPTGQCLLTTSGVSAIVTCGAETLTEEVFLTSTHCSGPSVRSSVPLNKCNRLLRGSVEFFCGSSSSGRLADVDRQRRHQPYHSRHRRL
#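 Detergent-free condition (0.00005% Triton X-100) in acetate buffer pH 5.5 with DTT. 1.5 nM enzyme and compound were pre-mixed 15 min, then 2 uM Z-FR-AMC substrate added; reaction progress from fluorescence change between first and third reads (60 s).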
# Cruzain inh Det: qHTS Assay for Promiscuous and Specific Inhibitors of Cruzain (with detergent) | purified cruzain, Z-FR-AMC fluorescence, 0.01% Triton | AID 1478, 2009 | actives 0.43% (n = 200,000) | Potency, µM, inactives show max response, negative = inhibition, actives largely listed as inhibitors;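 further: plate controls were neutral wells for no effect and buffer without enzyme for full effect; nearly all actives have a fitted effect of over 40% in size; top concentration of the series not given in the record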
#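 Purified cruzain (1.5 nM final) was preincubated with compounds for 15 min at room temperature in 100 mM sodium acetate pH 5.5, 5 mM DTT, 0.01% Triton X-100. Reaction started with 2 uM Z-FR-AMC; AMC fluorescence change over 60 s gave activity.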
# SARS PLP yeast: qHTS of Yeast-based Assay for SARS-CoV PLP; actives 0.19% (n = 330,000); S. cerevisiae expressing SARS-CoV PLpro, growth rescue; control for the full effect not named in the record; Potency, µM (titrated, usually from 32.9 µM), for the others: at the highest dose activity, positive = growth rescue; AID 485353, 2010; active means well fitted rising curve with a large enough effect; inconclusive means small, poorly fitted or top-dose-only effect; inactive means no such curve, though single readings can be large or run the other way; further: 0% is about no effect; nearly all actives have a fitted effect of over 55% in size; growth read by luminescence after 48 h
# Lassa entry inh: qHTS for Inhibitors of binding or entry into cells for Lassa Virus | Lassa virus pseudotype entry inhibition, cell reporter; control for the full effect not named in the record | Potency, µM (titrated, usually from 37.9 µM), without a hit: at the highest dose activity change, negative = inhibition, usual class: inhibitors | actives 1.2% (n = 300,000) | AID 540256, 2011; active means well fitted inhibition curve with a large enough effect; inconclusive means small, poorly fitted or top-dose-only effect, or effect the other way; inactive means flat fitted curve, though single readings scatter; tested in HEK293 cells; further: on the % scale 0 is the no-effect control and ±100 the full control effect; nearly all actives have a fitted effect of over 50% in size; luciferase read-out
# Starred values were filed as active, the others as inactive; ? = inconclusive; . = not tested or not shown; & = joins results of further samples; [ ] = dose if it differs, or a comment. Unless noted, the call rests on the fitted dose curve; in most records, active means well fitted curve in the direction sought with a large enough effect; inconclusive means small, poorly fitted or top-dose-only effect, or another doubt; inactive means no such curve, though single readings can be large; an effect the other way counts as inactive or inconclusive. Potency means the concentration at half of the fitted maximal effect.
# Sample of the layout:
Structure	2A StopGo	RE007 growth inh	NS1 inh	MARV entry inh	Cruzain noTriton	Cruzain inh Det	SARS PLP yeast	Lassa entry inh
CC(C)(C)OC(=O)COc1cc(O)c2c(=O)cc(-c3ccccc3)oc2c1	-28.6%	7.4%	3.6%	?	6.9%	-5.4%	24.4%	?
S=C1NC2(CCCCC2)N=C1c1ccccc1	24.7%	3.8%	?	-0.6%	-8.7%	-1.0%	?	-1.3%
O=C(CSc1nc2c(c(=O)n1-c1ccc(F)cc1)SCC2)N1CCCC1	-28.7%	12.6%	5.0%	?	-9.6%	-2.5%	1.1%	27.6%
NC(=O)NNc1ncc(C(F)(F)F)cc1Cl	-2.1%	2.7%	.	7.2%[46.1 µM]	.	.	1.7%	15.1%
O=S1(=O)c2ccccc2N=NN1Cc1cc(Cl)cc(Cl)c1	.	.	7.5%	-0.3%	?	?	.	.

# This part in full, previewed entries included:
Structure	2A StopGo	RE007 growth inh	NS1 inh	MARV entry inh	Cruzain noTriton	Cruzain inh Det	SARS PLP yeast	Lassa entry inh
CC(C)(C)OC(=O)COc1cc(O)c2c(=O)cc(-c3ccccc3)oc2c1	-28.6%	7.4%	3.6%	?	6.9%	-5.4%	24.4%	?
S=C1NC2(CCCCC2)N=C1c1ccccc1	24.7%	3.8%	?	-0.6%	-8.7%	-1.0%	?	-1.3%
O=C(CSc1nc2c(c(=O)n1-c1ccc(F)cc1)SCC2)N1CCCC1	-28.7%	12.6%	5.0%	?	-9.6%	-2.5%	1.1%	27.6%
NC(=O)NNc1ncc(C(F)(F)F)cc1Cl	-2.1%	2.7%	.	7.2%[46.1 µM]	.	.	1.7%	15.1%
O=S1(=O)c2ccccc2N=NN1Cc1cc(Cl)cc(Cl)c1	.	.	7.5%	-0.3%	?	?	.	.
Cn1c(=O)c2c(c3ccccc31)OC(=O)CC2c1cccc(Cl)c1 (stereo not drawn)	-24.2%	.	.	.	-1.3%	1.0%	.	-21.7%[46.1 µM]
Cc1nc(Sc2ccccc2)c(C#N)cc1-c1ccccc1	19.9%	-10.8%	-52.4%	15.8%	-12.4%	2.1%	-20.3%	3.8%
CC(C)Oc1ccc(C(=O)Nc2ccc(N3CCCC3)cc2)cc1	.	6.6%	?	17.9%	3.98µM*	-28.0%	-8.2%	0.8%
C[C@H](NC(=O)c1cc2cc(Cl)ccc2n1C)C(=O)N[C@@H](Cc1ccccc1)C(=O)O	-12.4%	5.4%	5.6%	8.9%[46.1 µM]	.	.	-0.1%	11.0%[46.1 µM]
O=C(c1n[nH]c2ccccc12)N1CCN(c2ccc(F)cc2)CC1	28.4%	4.0%	.	8.1%	.	.	-4.0%	-3.4%
CCCCCCC1CC(=O)NC(=O)N1 (stereo not drawn)	5.7%	35.9%	3.0%	4.1%	.	.	-2.6%	?
COc1ccccc1NS(=O)(=O)c1ccc(/C=C/C(=O)O)cc1	1.5%	1.3%	.	1.1%[46.1 µM]	.	.	0.5%	-1.7%[46.1 µM]
CN(CCOc1ccccc1)C(=O)c1ccc(N2CCCC2)c([N+](=O)[O-])c1	-16.8%	10.0%	-9.2%	-20.4%[46.1 µM]	.	.	3.4%	0.4%[46.1 µM]
COc1ccc(-c2ccc(OC)cc2)cc1	62.6%[activator]	-0.8%	.	9.2%	.	.	10.8%	4.5%
C/C(=N\NC(=S)NCCc1ccccc1)c1ccc(C#N)cc1	-7.4%	-7.9%	7.6%	?	10µM*	-6.3%	-1.4%	7.2%
O=C(c1nsc(Cl)c1Cl)N1CCCCC1	15.0%	20.7%	-3.8%	21.7%	1.4%	5.1%	3.9%	29.9%
CC(=O)Nc1ccc(S(=O)(=O)N2CCN(S(=O)(=O)c3ccccc3)CC2)cc1	-8.6%	14.8%	-9.6%	.	.	.	-14.6%	.
O=C(COc1ccc(S(=O)(=O)NCCc2ccccc2)cc1)N1CCCC1	.	-10.7%	-5.3%	4.5%	3.1%	2.4%	3.0%	4.7%
Cc1cccc(C)c1Nc1nc2ccccc2o1	-21.7%	14.0%	-9.7%	.	-7.7%	-2.3%	-1.2%	.
CC(Oc1ccc(NC(=O)c2ccco2)cc1)C(=O)N1c2ccccc2CC1C (stereo not drawn)	?	3.9%	-65.4%	-8.1%	3.8%	-1.8%	2.2%	?
Cc1cc(C(=O)N2CCCC(C(=O)c3cccc(C(F)(F)F)c3)C2)n[nH]1 (stereo not drawn)	-15.3%	-2.2%	6.9%	.	.	.	-5.7%	.
COc1ccc(-c2noc(CSc3nnc(Cc4ccccc4)n3-c3cccc(C)c3)n2)cc1	?	.	.	-4.1%[46.1 µM]	-1.2%	-9.3%	.	?
Cc1ccc(CC(=O)Nc2ccc(C(=O)N3CCOCC3)cc2)cc1	9.3%	5.7%	9.6%	21.2%	.	.	0.6%	-0.8%
Cc1onc(C(=O)N2CCN(c3ccccc3)CC2)c1[N+](=O)[O-]	-8.7%	-11.2%	-3.1%	.	.	.	-3.4%	.
Cc1ccc2c(c1)N(CC(=O)N1CCCCC1)C(=O)CO2	-6.9%	3.6%	4.2%	?	.	.	0.3%	15.1%[46.1 µM]
CCc1ccc(N(CC)C(=O)c2cn(C)c(=O)c3cc(OC)c(OC)cc23)cc1	-14.4%	.	.	16.8%[46.1 µM]	3.3%	-2.4%	.	8.8%[46.1 µM]
CCc1ccc2[nH]c3nc(SCc4nnc(-c5ccccc5)o4)nnc3c2c1	-2.2%	-15.4%	-2.1%	-5.1%[46.1 µM]	.	.	4.2%	19.8%
Cn1sc(NC(=O)c2ccc(Cl)cc2)nc1=O	15.2%	0.1%	-20.8%	-2.1%	-8.6%	1.1%	-4.5%	-14.7%
CC(C)On1c(SC(C)C)nc2ccccc2c1=O	5.3%	3.8%[3.69 µM]	-9.0%	0.1%	3.0%	8.4%	0.7%	1.2%
COc1ccc(CNC(=O)C[C@H]2C(=O)N(Cc3ccc(OC)cc3)C[C@@H]2Cc2ccccc2)cc1	-15.1%	14.0%	-30.2%	.	.	.	-2.0%	.

# Continued.
Structure	2A StopGo	RE007 growth inh	NS1 inh	MARV entry inh	Cruzain noTriton	Cruzain inh Det	SARS PLP yeast	Lassa entry inh
CC1(C)CC(=O)C(C(c2cccnc2)C2C(=O)CC(C)(C)CC2=O)C(=O)C1	31.3%[activator]	-3.8%	-3.7%	9.5%	-5.7%	2.1%	2.0%	-2.9%
CCC1(CC)CNC(=O)NC1=O	-5.1%	-11.0%	.	?	.	.	.	8.6%
O=C(c1ccco1)N1CCn2cccc2C1c1ccccc1 (stereo not drawn)	9.1%	-5.0%	.	-7.1%[46.1 µM]	.	.	-0.3%	-9.9%
COc1cc(SC)ccc1C(=O)N1CCCCCC1	1.2%	-5.2%	-9.9%	8.7%	3.3%	2.4%	0.0%	7.5%
Cc1ccc(SCCNC(=O)c2ccc(C)c([N+](=O)[O-])c2)cc1	-3.5%	-6.8%	-40.6%	10.3%	1.2%	-0.8%	-9.6%	-0.3%
Cc1ccc(-n2c(C)nnc2SCC(=O)N2CCc3ccccc3C2)cc1C	-7.9%	0.0%	-25.9%	22.0%	0.6%	3.4%	-3.0%	-13.5%
COc1ccc(-c2csc(NC(=O)c3ccoc3C)n2)cc1	-8.5%	9.8%	.	-5.0%[46.1 µM]	.	.	-0.8%	?
CCC(C)[C@H](N)C(=O)NC[C@H]1CC[C@H](C(=O)N[C@@H](Cc2ccccc2)C(=O)O)CC1 (stereo partly drawn)	-3.5%	10.7%	6.4%	-3.4%[46.1 µM]	.	.	1.4%	-0.7%[46.1 µM]
CCOc1cccc(-c2nnc3sc(-c4cccs4)nn23)c1	5.5%	2.5%	-6.0%	-7.4%&-7.4%	-8.4%	-7.3%	2.9%	-18.8%
CCCN(CCC)C(=O)/C=C/c1cccc([N+](=O)[O-])c1	-18.9%	-5.8%	-6.7%	0.1%	.	.	-10.1%	.
Cn1c(CC(=O)Nc2ccccc2F)nnc1SCC(=O)Nc1ccccc1Br	28.2%	0.1%	-61.1%	2.1%	.	.	-0.1%	0.7%
N=c1ccn(Cc2ccc(Cl)cc2)cc1	?	-15.0%	1.2%	?	-14.9%	4.8%	-2.4%	?
CCOC(=O)c1[nH]c2ccccc2c1NC(=S)Nc1ccccc1C	25.9%	-16.1%	20.3%	40.3%	9.2%	-3.4%	7.2%	28.3%
CCOC(=O)CN1C(=O)C(=O)N(Cc2c(F)cccc2Cl)C1=O	-11.2%	16.0%	1.4%	17.8%	.	.	-1.9%	-0.1%
COc1ccc(-c2nnc(SCc3nnc(-c4ccccc4)o3)n2-c2ccccc2)cc1	-10.3%	-3.7%	5.7%	-17.0%	9.3%	-4.5%	-4.9%	?
CCOC(=O)c1c(NC(=O)Cn2cnc3sc(C)c(-c4ccccc4)c3c2=O)sc(C)c1C	-14.5%	3.3%	?	-28.3%[46.1 µM]	12.6µM*	-7.4%	-19.4%	-4.0%&4.3%
COc1ccccc1NS(=O)(=O)c1cc(C(=O)NCC(c2ccco2)N(C)C)ccc1C (stereo not drawn)	-8.1%	0.0%	.	-24.7%	.	.	-2.4%	6.6%
O=S(=O)(c1ccccc1)N1CN(Cc2ccc(F)cc2)c2nc3ccccc3nc21	40.2%[activator]	0.1%	-3.5%	16.9%	.	.	0.4%	-9.3%
O=C1CCCN2N=C(SCC(=O)Nc3ccccc3C(F)(F)F)SC2=N1	-13.5%	4.0%	-3.0%	10.7%	.	.	-4.3%	0.4%
